RanGTP-Imp inh = inhibitors of RanGTP-importin-beta interaction, primary screen, biochemical, FRET, CFP-Ran, YFP-importin-beta, homogeneous; Ran GTPase (GTP-bound) - importin-beta complex; cell-free CFP-Ran/YFP-importin-beta FRET ratio; inhibition, % (test concentration not listed); actives 1.1% (n = 300,000); AID 2216, 2009;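 active = most replicates above 15%; inconclusive = exactly half above 15%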;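 also: 0% = DMSO wells and 100% = Ran loaded with GDP instead of GTP; wells of about 40 µL received 100 nL stock; the first replicate is given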
Beta cell apopt = inhibitors of cytokine-induced beta cell apoptosis, primary screen, luminescence | INS-1E cytokine-induced death, ATP luminescence, 48 h; percent of positive-control rescue, neutral wells zero | protection from apoptosis, % (no concentration beside the values) | actives 0.8% (n = 300,000) | AID 435005, 2010;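 active = all replicates at 75% or more, or half of them and the mean; inconclusive = half reach 75% but not the mean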;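 also: 0% = cytokine-treated negative control wells and 100% = positive control rescue; higher means more ATP so stronger rescue from cytokine killing; wells of about 40 µL received 100 nL stock; the first replicate is given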
AF4-AF9 inh = inhibitors of AF4 peptide binding to AF9, primary screen, biochemical, AlphaScreen, biotin-AF4 peptide, FLAG-AF9, single point. Protein AF-9 (Homo sapiens), P42568. inhibition, % at 10 µM. actives 0.47% (n = 350,000);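 active = every replicate reaching a set inhibition limit, whatever the replicate mean, cut at about 25% in these data; inconclusive = mean inhibition reaches that limit but some replicates miss it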;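 also: 0% = plate neutral control median and 100% = total signal loss; the record names both 10 and 1 µM as test concentration; the first replicate is given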
Target sequence (P42568 whole entry, looked up): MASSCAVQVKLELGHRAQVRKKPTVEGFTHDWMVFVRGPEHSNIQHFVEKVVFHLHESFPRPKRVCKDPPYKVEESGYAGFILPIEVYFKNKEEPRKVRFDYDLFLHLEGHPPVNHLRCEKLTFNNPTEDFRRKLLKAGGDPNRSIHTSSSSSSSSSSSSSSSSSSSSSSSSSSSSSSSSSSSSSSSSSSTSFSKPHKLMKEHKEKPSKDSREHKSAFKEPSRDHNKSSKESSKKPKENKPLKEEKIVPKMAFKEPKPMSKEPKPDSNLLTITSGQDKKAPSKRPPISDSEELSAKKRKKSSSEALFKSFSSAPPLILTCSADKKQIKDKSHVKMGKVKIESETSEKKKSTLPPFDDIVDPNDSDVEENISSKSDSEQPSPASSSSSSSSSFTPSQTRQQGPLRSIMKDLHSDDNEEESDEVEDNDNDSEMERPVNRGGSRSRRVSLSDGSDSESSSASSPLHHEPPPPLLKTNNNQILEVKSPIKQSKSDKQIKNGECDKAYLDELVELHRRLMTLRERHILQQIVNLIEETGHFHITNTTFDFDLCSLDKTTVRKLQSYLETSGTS
Ecoli rRNA inh = reduced GFP signal of wild-type E. coli, primary screen, bacterial rRNA inhibitor project, GFP/RFP fluorescence, OD600, single point. E. coli WT GFP vs humanized-ribosome RFP mutants, 24 h; stronger effect = lower value; DMSO median 0, no signal -100. actives 1.6% (n = 350,000). GFP signal change (wild-type ribosome), % (concentration not given with the values);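 active = significant combined selectivity score with lowered wild-type GFP, culture density cut under 30%, mutant RFP and density less affected; inactive = any of these conditions unmet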; also: one replicate is shown; some compounds called inactive have numbers as strong as hits
Calb FLC = C. albicans growth inhibition with fluconazole, primary screen, CaCi-2 strain, Alamar Blue fluorescence | C. albicans CaCi-2 (fluconazole-resistant clinical isolate) + fluconazole, 48 h | growth inhibition, % (concentration not given with the values) | actives 0.57% (n = 300,000);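 active = most replicates above 75%; inconclusive = exactly half above 75%; inactive = most below 75%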;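 also: all wells also contain fluconazole at 8 µg/ml as a sub-toxic cotreatment; 0% = median of DMSO wells and 100% = median of geldanamycin control wells; wells of about 8 µL received 7.5 nL stock; the first replicate is given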
FGF22 binding = binders of human FGF22 protein, primary screen, FGF22 synaptogenesis inhibitor project, biophysical, thermal shift, single point. recombinant FGF22 thermal shift, SYPRO orange fluorescence; percent of sucrose octasulfate shift, DMSO zero. calls only at 9.99 µM. actives 1.5% (n = 340,000). Fibroblast growth factor 22 (Homo sapiens), Q9HCT0;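 active = melting point raised past a set limit in the mean and every replicate; inconclusive = no clear call; three in four hits are not shown here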
Target sequence (Q9HCT0 whole entry, looked up): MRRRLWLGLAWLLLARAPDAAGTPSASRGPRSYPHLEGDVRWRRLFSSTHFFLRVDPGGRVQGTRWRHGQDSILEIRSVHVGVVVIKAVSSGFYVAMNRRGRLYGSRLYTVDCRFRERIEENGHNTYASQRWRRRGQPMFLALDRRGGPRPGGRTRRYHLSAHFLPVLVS
ALR H2O2 inh = inhibitors of human ALR sulfhydryl oxidase, primary screen, biochemical, H2O2 detection, HRP-luminol luminescence, single point; FAD-linked sulfhydryl oxidase ALR (Homo sapiens), P55789; purified ALR, DTT oxidation; inhibition, % (no concentration beside the values); actives 3.8% (n = 290,000);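 active = mean and each replicate at 75% or more; inconclusive = only one of the two met; inactive = neither met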;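 also: stock transfer was 7.5 nL into about 7.5 µL; 0% = neutral wells and 100% = wells with inactivated enzyme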
Target sequence (P55789 whole entry, looked up): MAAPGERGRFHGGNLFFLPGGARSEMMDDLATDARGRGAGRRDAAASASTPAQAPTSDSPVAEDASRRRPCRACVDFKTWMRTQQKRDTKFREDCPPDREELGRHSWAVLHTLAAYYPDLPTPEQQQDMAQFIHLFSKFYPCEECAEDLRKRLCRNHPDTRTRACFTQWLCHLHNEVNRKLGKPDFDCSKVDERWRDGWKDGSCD
T cruzi inh = inhibitors of intracellular T. cruzi growth, primary screen, luminescence, NIH3T3 host cells. T. cruzi beta-gal in NIH3T3, 90 h. inhibition, % (test concentration not listed). actives 1.4% (n = 300,000);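 active = mean inhibition across valid replicates above about 55%, limit read from the data; inconclusive = mean below that limit but half or more replicates reach it; inactive = mean below it, under half of replicates reach it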;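 also: signal also drops with host cell toxicity which is not excluded here; 0% = plate median of DMSO wells and 100% = zero luminescence signal; higher percent means less beta-gal luminescence so fewer parasites; stock transfer was 50 nL into about 50 µL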
Ecoli rRNA inh OD600 = also measured in Ecoli rRNA inh; calls as there; OD600 change, %; measured here: OD600 growth;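 optical density of the mix in the first replicate; 0 = DMSO median and -100 = no signal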
Ecoli rRNA inh RFP = recorded beside Ecoli rRNA inh, whose call it bears; RFP signal change, %; measured here: RFP humanized mutant strains;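 first replicate; 0 = DMSO median and -100 = no signal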
An asterisk follows results filed as active; i = inactive; ? = inconclusive; . = not tested or not shown. Only part of the results is shown; count on the stated rates, not on these rows.

cpd	mol	RanGTP-Imp inh	Beta cell apopt	AF4-AF9 inh	Ecoli rRNA inh	Ecoli rRNA inh OD600	Ecoli rRNA inh RFP	Calb FLC	FGF22 binding	ALR H2O2 inh	T cruzi inh
1	Cc1c(NC(NC(=O)CC(C)C)C(Cl)(Cl)Cl)c(=O)n(-c2ccccc2)n1C (stereo not given)	2.1	-4	-1.9	3	-1	-2.4	-2	i	63	-7
2	Cc1csc(SCC(=O)Nc2nc3ccccc3s2)n1	6.1	4	.	.	.	.	-17	.	-5	4
3	Cc1cccc(C(=O)OCC(=O)NCc2ccc3c(c2)OCO3)c1C	.	-4	0.9	-3	-3	2.3	.	i	3	.
4	CC(C)CN1CCNC(=O)C1CC(=O)NCCc1ccc(C(F)(F)F)cc1 (stereo not given)	1.3	-5	-0.7	10	-3	3.8	3	i	7	-2
5	O=C(Cc1c(O)c2ccccc2[nH]c1=O)N(Cc1ccccc1)Cc1ccccc1	-0.3	-5	.	.	.	.	24	.	15	-17
6	CNc1nc2c(C)cccn2c(=O)c1C=Nc1ccc(OC)cc1	?	2	2.5	-4	-5	-0.8	-25	.	0	0
7	CCOC(=O)Cc1csc(SCC(=O)N2CCN(c3ccccc3)CC2)n1	.	-5	1.7	0	2	5.8	.	i	?	.
8	COc1ccc(CCNC(=O)CSc2nnc(CNC(=O)c3ccccc3F)o2)cc1OC	?	-4	.	.	.	.	1	.	-41	7
9	CC(C)c1ccc(/C=C(\NC(=O)c2ccccc2)C(=O)NCCCN2CCOCC2)cc1	7.6	-3	0.7	10	-9	-1.9	-5	i	.	15
10	COCCN1C(=O)C(=O)/C(=C(/O)c2ccc(S(=O)(=O)N3CCCCC3)cc2)C1c1ccc(OC)cc1 (stereo not given)	4.3	2	-2.1	4	19	-0.5	6	i	-1	5
11	CC(=O)Nc1cccc(NC(=O)CSc2nnc3ccc(-c4ccccn4)nn23)c1	-4.0	2	-0.3	8	2	2.9	0	i	-3	-6
12	CCCn1c(N2CCN(CC(=O)c3c[nH]c4ccccc34)CC2)nc2c1c(=O)[nH]c(=O)n2C	-13	-6	.	.	.	.	6	.	0	-4
13	CCOC(=O)C1=C(C)C(c2ccccc2)NC(=S)N1 (stereo not given)	1.7	2	.	.	.	.	1	.	-6	6
14	Cc1cc(C)c(C)c(Cn2c(CO)nc3ccccc32)c1C	-0.4	4	.	.	.	.	-6	.	3	-7
15	O=C(O)CCC(=O)NNC(=O)CCC(=O)Nc1ccccc1	?	-4	-0.7	20	15	8.3	-10	i	-8	-13
16	C/C(=N\NC(=O)c1ccccc1O)C1CC1	-2.6	10	-1.3	6	8	0.2	8	i	-1	-16
17	CC(C)N(Cc1cc2ccccc2[nH]c1=O)C(=O)C(C)(C)C	0.2	1	.	.	.	.	4	.	.	4
18	Cc1c(C(=O)N2CCN(Cc3ccccc3)CC2)oc2c1C(=O)CC(C)(C)C2	?	-5	1.8	1	3	2.4	0	i	4	-1
19	COc1ccc(CCc2nc(-c3ccc(-n4cccc4)cc3)no2)cc1	-1.7	-3	-5.4	1	5	-1.5	17	i	.	0
20	O=C(O)c1cccc(S(=O)(=O)Nc2ccc(-c3ccccc3)cc2)c1	.	-1	0.4	-49	-68	-24	.	i	.	.
21	Cc1ccc(NNC(=O)c2snnc2C)cc1Cl	4.9	-4	.	20	8	-3.1	-29	i	.	15
22	CCN(CC(=O)Nc1ccc2c(c1)OCCO2)C(=O)CC1CCCC1	-1.0	0	.	.	.	.	-1	.	1	2
23	CC(C)NC(=O)CSc1nc2ccccc2c(=O)n1CCCOC(C)C	-1.4	-3	4.8	2	4	1.7	7	i	-2	1
24	O=C(CSc1nnc(CNC(=O)c2ccco2)o1)Nc1ccc(OC(F)(F)F)cc1	-3.4	2	-1.6	-5	2	-3.5	39	i	-10	-22
25	C=CCc1cccc2cc(C(=O)NC(C)(C)C)c(=O)oc12	3.5	-2	.	.	.	.	-4	.	.	-20
26	CCCCS(=O)(=O)NC1=NCN(CCOC(=O)c2ccccc2)CN1	-4.8	-8	.	.	.	.	-20	.	-7	-10
27	Cc1ccc(S(=O)(=O)NCCC(c2ccc(F)cc2)c2ccco2)cc1 (stereo not given)	-1.5	-15	-1.4	.	.	.	5	i	-1	13
28	CCOc1ccc(C2N(c3ccc(Cl)cc3)C(=O)C3CCCN32)cc1OC (stereo not given)	2.3	-7	-1.9	6	9	-2.1	-9	i	-19	-4
29	CCOC(=O)C1=C(C)N(CCCC(=O)O)C(=O)NC1c1cccc(OC)c1 (stereo not given)	0.7	-1	0.9	-1	14	2.4	-9	i	0	1
30	Cc1ccc(C(=O)CC2(O)C(=O)N(CN3CCOCC3)c3ccccc32)cc1 (stereo not given)	2.5	-8	.	.	.	.	-26	.	-2	5
31	CC(C)(C)N1C(=O)Cc2c1nc(N)c1c(N)nc(N3CCCCC3CO)c(C#N)c21 (stereo not given)	?	10	.	.	.	.	1	.	-68	-9
32	CCCCOc1cccc(-c2nnc(NC(=O)CSc3ccc(C)cc3)s2)c1	-3.9	-2	.	.	.	.	11	.	.	5
33	CCc1cc(=O)oc2cc(C)cc(OCC(=O)NC(Cc3ccc(Cl)cc3)C(=O)O)c12 (stereo not given)	-9.0	-7	-1.9	-5	6	6.1	10	i	2	-19
34	CC(=O)c1ccc(Nc2ccc(-c3ccccc3C)nn2)cc1	6.0	2	-2.8	-5	-7	-2.5	20	i	.	21
35	Cc1ccccc1-c1cc(C(=O)NCc2ccc3c(c2)OCO3)n(CC2CC(c3cccnc3)=NO2)n1 (stereo not given)	.	3	-0.2	-10	7	7.6	.	i	-18	.
36	Cc1cccc(NC(=O)CN2CCC(C(=O)c3ccc4c(c3)OCCO4)CC2)c1	5.0	-2	-1.4	-13	-25	1.0	-14	i	1	16
37	O=C(NC1CCCCC1)N1CCC(n2cnc3ccccc32)CC1	5.2	-2	.	.	.	.	-4	.	3	0
38	O=C1CC2(CCN(C(=O)c3ccc(F)c(F)c3)CC2)Oc2ccccc21	2.7	.	-0.9	1	-10	-1.0	13	.	1	-10
39	Fc1ccc(CNC(=S)Nc2ccc(Cl)cc2)cc1	0.7	-5	.	-59	-77	-16	-1	.	2	-12
40	C/C(=C\C(=O)c1ccc(Br)cc1)N1CCCCC1	2.5	-2	.	.	.	.	-4	.	-2	-14
41	O=C(CN1CCN(S(=O)(=O)c2ccc(Cl)cc2)CC1)NC1CC1	2.7	-4	-0.4	13	12	-0.2	18	i	-1	-3
42	Cc1csc(NC(=O)[C@@H](NC(=O)c2ccccc2)C(C)C)n1	-5.5	8	.	.	.	.	7	.	4	-7
43	O=C(Oc1ccccc1)N1CCOCC1	0.8	-2	-5.8	4	4	-6.0	-3	i	.	-17
44	CCOc1ccc2[nH]c(=O)c(CN(CC3COCCO3)C(=O)c3ccco3)cc2c1 (stereo not given)	2.3	.	.	.	.	.	1	.	-2	0
45	Cc1ccc(NC(=O)c2nc[nH]c2C(=O)NCCN(CCNC(=O)c2[nH]cnc2C(=O)Nc2ccc(C)cc2)CCNC(=O)c2[nH]cnc2C(=O)Nc2ccc(C)cc2)cc1	.	-6	0.0	21	17	2.8	.	i	1	.
46	O=C(CSc1ncn[nH]1)Nc1ccc(Cl)c(S(=O)(=O)N2CCOCC2)c1	-1.2	3	-1.4	4	2	1.4	25	.	-2	1
47	CCc1ccc(OCC(=O)NC(=S)Nc2ccc(Br)c(C)n2)cc1	-0.5	-9	-6.8	17	16	4.4	-9	i	-2	1
48	C=CCNC(=O)c1cc(C(=O)C(C)c2ncc(C(F)(F)F)cc2Cl)c[nH]1 (stereo not given)	1.2	4	-0.6	11	9	1.7	-7	i	-2	3
49	CCN(CC(=O)Nc1ccc2c(c1)OCCO2)C(=O)c1ccccc1Br	.	1	-0.2	-3	-34	-0.9	.	i	-6	.
50	Cc1cccc(NC(=O)COC(=O)c2nn(C)c(=O)c3ccccc23)c1C	.	-1	0.3	.	.	.	.	i	0	.

Random excerpt: three compounds from above, in no set order.
cpd	mol	RanGTP-Imp inh	Beta cell apopt	AF4-AF9 inh	Ecoli rRNA inh	Ecoli rRNA inh OD600	Ecoli rRNA inh RFP	Calb FLC	FGF22 binding	ALR H2O2 inh	T cruzi inh
48	C=CCNC(=O)c1cc(C(=O)C(C)c2ncc(C(F)(F)F)cc2Cl)c[nH]1 (stereo not given)	1.2	4	-0.6	11	9	1.7	-7	i	-2	3
42	Cc1csc(NC(=O)[C@@H](NC(=O)c2ccccc2)C(C)C)n1	-5.5	8	.	.	.	.	7	.	4	-7
43	O=C(Oc1ccccc1)N1CCOCC1	0.8	-2	-5.8	4	4	-6.0	-3	i	.	-17

Next records.
cpd	mol	RanGTP-Imp inh	Beta cell apopt	AF4-AF9 inh	Ecoli rRNA inh	Ecoli rRNA inh OD600	Ecoli rRNA inh RFP	Calb FLC	FGF22 binding	ALR H2O2 inh	T cruzi inh
51	COC(=O)c1cccc(NC(=O)CSc2nnc(C3CC3)n2C)c1	-2.0	2	0.0	2	9	-0.2	-6	i	0	-7
52	COc1ccc(C(=O)NCCSCc2ccco2)cc1OC	-2.5	-4	-1.1	5	-9	-2.8	-2	i	-13	1
53	COCCNC(=O)c1c(N)n(CCC2=CCCCC2)c2nc3ccccc3nc12	68*	-10	.	.	.	.	-5	.	-7	2
54	CC(=O)c1ccc(OCCCC(=O)N2CCN(S(=O)(=O)c3cccs3)CC2)cc1	0.6	0	.	.	.	.	6	.	-18	12
55	CCOC(=O)c1oc2cc(C)cc(C)c2c1C	3.0	-4	-1.7	-2	2	-5.6	3	i	-5	-3
56	CC(=O)c1cc(F)c(N2CCN(c3ccc([N+](=O)[O-])cc3F)CC2)cc1C	3.6	4	.	.	.	.	-5	.	2	-14

Compounds above containing a COOH group:
cpd	mol	RanGTP-Imp inh	Beta cell apopt	AF4-AF9 inh	Ecoli rRNA inh	Ecoli rRNA inh OD600	Ecoli rRNA inh RFP	Calb FLC	FGF22 binding	ALR H2O2 inh	T cruzi inh
15	O=C(O)CCC(=O)NNC(=O)CCC(=O)Nc1ccccc1	?	-4	-0.7	20	15	8.3	-10	i	-8	-13
20	O=C(O)c1cccc(S(=O)(=O)Nc2ccc(-c3ccccc3)cc2)c1	.	-1	0.4	-49	-68	-24	.	i	.	.
29	CCOC(=O)C1=C(C)N(CCCC(=O)O)C(=O)NC1c1cccc(OC)c1 (stereo not given)	0.7	-1	0.9	-1	14	2.4	-9	i	0	1
33	CCc1cc(=O)oc2cc(C)cc(OCC(=O)NC(Cc3ccc(Cl)cc3)C(=O)O)c12 (stereo not given)	-9.0	-7	-1.9	-5	6	6.1	10	i	2	-19

Bioassay records as filed in PubChem BioAssay.
